Screening results from PubChem.
D2 ag: Beta-Arrestin HTS for Positive Allosteric Modulators of the Human D2 Dopamine Receptor: Agonists; DiscoveRx PathHunter D2 beta-arrestin, luminescence, 90 min; 100% = 57 uM dopamine signal; AID 624465, 2012; activation, % (concentration not given with the values); 0.084% of 360,000 active; in the data active = activation above about 40%; inconclusive = about 15% to 40%; inactive = below about 15%; further: compound concentration not given in the record; the text of the record calls up to 30% inactive
Target sequence (P14416 whole entry, looked up): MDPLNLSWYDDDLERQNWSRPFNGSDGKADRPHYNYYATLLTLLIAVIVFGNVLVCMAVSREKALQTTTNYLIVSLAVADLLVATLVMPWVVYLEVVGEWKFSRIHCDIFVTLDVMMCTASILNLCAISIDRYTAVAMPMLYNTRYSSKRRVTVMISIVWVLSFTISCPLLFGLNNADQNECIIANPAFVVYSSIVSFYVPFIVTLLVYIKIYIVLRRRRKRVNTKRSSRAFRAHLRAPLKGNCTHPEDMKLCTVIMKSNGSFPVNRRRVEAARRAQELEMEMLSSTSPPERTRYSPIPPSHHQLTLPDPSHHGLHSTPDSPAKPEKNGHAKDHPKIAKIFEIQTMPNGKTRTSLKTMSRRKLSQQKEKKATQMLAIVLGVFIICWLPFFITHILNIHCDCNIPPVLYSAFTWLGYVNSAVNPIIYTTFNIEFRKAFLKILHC
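Agonist mode: compounds alone added to overnight-plated D2 PathHunter cells for 90 min at 37 C, with 57 uM final dopamine (EC100) defining full response. Beta-arrestin recruitment detected by chemiluminescent reagent, read after 1 h at ambient temperature.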
ClpP mod: qHTS Assay for Activators of ClpP | ATP-dependent Clp protease proteolytic subunit (Bacillus subtilis (strain 168)), P80244 | purified B. subtilis ClpP, FRET peptide cleavage, 20 min | Potency, µM (highest dose often 57.5 µM), inactives show at the highest dose activity change, negative = active | 1.9% of 340,000 active | AID 651965, 2013; active = well fitted falling curve with a large enough effect; inconclusive = small, poorly fitted or top-dose-only effect; inactive = no such curve, though single readings can be large or run the other way; further: potency means the concentration at half of the fitted maximal effect; the source files actives as falling curves though it sought activators and does not explain the sign; nearly all actives have a fitted effect of over 65% in size; many hits overshoot -100%
Target sequence (P80244 whole entry, looked up): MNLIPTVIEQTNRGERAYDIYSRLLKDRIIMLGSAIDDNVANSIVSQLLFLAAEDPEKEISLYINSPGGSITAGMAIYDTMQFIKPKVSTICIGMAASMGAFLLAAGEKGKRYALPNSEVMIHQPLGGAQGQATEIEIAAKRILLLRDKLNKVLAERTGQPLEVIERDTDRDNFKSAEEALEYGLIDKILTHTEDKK
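Buffer: 100 mM Tris/HCl pH8, 100 mM KCl, 0.05% low protease BSA, 2.5% glycerol, 0.01% Tween-20. ClpP 10 microg/mL final; 20 min RT; delta FRET normalized to ADEP and DMSO controls.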
PINK1 modulator: A Quantitative High throughput Screen to Identify Chemical Modulators of PINK1 Expression. PINK1 immunofluorescence, high-content cytometry, 24 h. Potency, µM (series often up to 76.6 µM), for inactives: at the highest dose activation (PINK1 increase), usual class: activators. 0.2% of 410,000 active. AID 624263, 2012; active = well fitted activation curve with a large enough effect; inconclusive = small, poorly fitted or top-dose-only effect; inactive = flat fitted curve, though single readings scatter; cell line not stated here;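 further: potency means the concentration at half of the fitted maximal effect; % of control where 0% means no effect; nearly all actives have a fitted effect of over 65% in size; a mitochondrial uncoupler was the plate control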
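Fluorescence from anti-PINK1 antibody, together with nuclear and cell stains, was scanned on a laser-scanning cytometer. Before staining, stable-line cells were incubated 24 hours with compounds at 5 concentrations; primary antibody 12 h at 10 degrees C.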
Sfp inh: qHTS Assay for Inhibitors of Bacillus subtilis Sfp phosphopantetheinyl transferase (PPTase); Biochemical Sfp PPTase activity, qHTS; 3.5% of 310,000 active; Potency, µM, without a hit: max response, negative = inhibition, hits mostly inhibitors; active means well fitted inhibition curve with a large enough effect; inconclusive means small, poorly fitted or top-dose-only effect, or another doubt; inactive means no such curve, though single readings can be large or run the other way;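 further: the enzyme is Sfp with the accession as filed and its product quenches rhodamine fluorescence; potency means the concentration at half of the fitted maximal effect; 0% = enzyme reaction without inhibitor and -100% = no enzyme wells; top concentration of the series not given in the record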
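With Hepes-Na pH 7.6 buffer containing 10 mM MgCl2, Sfp (15 nM) modified BHQ-2-YbbR (12.5 uM) using rhodamine-CoA (5 uM). Two reads 30 minutes apart at 525/598 nm yielded each well's rate.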
gsp antag: qHTS for Antagonists of gsp, the Etiologic Mutation Responsible for Fibrous Dysplasia/McCune-Albright Syndrome: qHTS | AID 624288, 2012 | gsp-mutant cells, cAMP HTRF, 30 min; control for the full effect not named in the record | Potency, µM (titrated, usually from 76.9 µM), without a hit: at the top dose activity change, negative = inhibition, hits mostly inhibitors | 0.4% of 340,000 active; active = falling curve of any shape with a large fitted effect; inconclusive = falling curve, mostly with a smaller effect; inactive = flat or rising curve; cell line not stated here;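 further: intracellular cAMP measured with PDE inhibitor Ro 20-1724 present during compound exposure; potency means the concentration at half of the fitted maximal effect; on the % scale 0 is the no-effect control and ±100 the full control effect; nearly all actives have a fitted effect of over 65% in size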
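HTRF cAMP read-out (cAMP-d2 plus anti-cAMP antibody-K in lysis buffer, 30 min RT). Before lysis, cells are exposed to compounds with […] for 30 min at 37C in DPBS containing Ca/Mg, BSA and Tween 20.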
Menin-MLL FL inh: qHTS Assay for Inhibitors Targeting the Menin-MLL Interaction in MLL Related Leukemias: Competition With Fluorescein Labeled MLL-derived Peptide | Fluorescence polarization, fluorescein-MLL peptide displacement from menin | FP activity change, % at 61.4 µM | 290,000 tested, under 10 active | AID 1766, 2009; inconclusive = falling polarisation curve, or a change in total fluorescence; inactive = total fluorescence flat and polarisation flat or rising; no compound was filed as active; the % refers to the polarisation; negative = inhibition;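 further: % of control where 0% means no effect; inhibitors lower the polarisation; unlabelled MLL peptide was the positive control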
gsp ag: qHTS for Agonist of gsp, the Etiologic Mutation Responsible for Fibrous Dysplasia/McCune-Albright Syndrome: qHTS | 0.13% of 340,000 active | gsp mutant cells, cAMP HTRF, 30 min; control for the full effect not named in the record | Potency, µM (doses to about 76.9 µM), inactives show at the highest dose activation (cAMP increase), actives largely listed as activators | AID 624287, 2012; active = well fitted activation curve with a large enough effect; inconclusive = small, poorly fitted or top-dose-only effect, or another doubt; inactive = no such curve, though single readings can be large or run the other way; cell line not stated here;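 further: phosphodiesterase inhibitor Ro 20-1724 added with compounds to block cAMP breakdown; potency means the concentration at half of the fitted maximal effect; nearly all actives have a fitted effect of over 60% in size; about a fifth of the inactives were tested at one dose only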
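Cells in DMEM/10% FBS with G418 were pretreated with compounds in DMSO plus […] (300 uM stock) for 30 min at 37C. cAMP was measured by HTRF (cAMP-d2 plus anti-cAMP antibody-K) after 30 min at room temperature.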
The depositor's hits bear a star; ? = inconclusive; / = no result given; [ ] = remark or other dose. The order is random; 5.1% or so of the library scored in one or more.

SMILES,ClpP mod,Menin-MLL FL inh,gsp ag,PINK1 modulator,D2 ag,gsp antag,Sfp inh
CC(c1ccco1)N(C(=O)c1ccc(Cl)c([N+](=O)[O-])c1)c1ccccn1 (stereo not drawn),/,-5.4,-5%,0.2%,-2.5,-18%,13%
CN(c1ccccc1)c1ccc(/C=N/N2CCOCC2)cc1,-1.4%,/,1%[15.4 µM],1.5%,-5.9,0%,-15%
COc1cc(/C=N/NC(=O)C(=O)NCC2CCCO2)ccc1O (stereo not drawn),-1.0%,2.7,2%[15.4 µM],-1.8%,-5.3,4%,-3%
COC(=O)c1[nH]c2cccc(OC)c2c1NC(=O)CN1CCOCC1,18µM*,2.1,-8%,-1.5%,-2.7,-11%,0%
CCOc1ccccc1N(C)S(=O)(=O)c1ccc2c(c1)CCN2C(=O)CCC(=O)O,0.5%,1.6,?,-0.8%,-1.9,9%,5%
C=C(C)C(COc1c2occc2cc2ccc(=O)oc12)OC(C)(C)C(O)COc1c2occc2cc2ccc(=O)oc12 (stereo not drawn),11%,/,/,1.6%,6.0,-24%,/
O=C(N/N=C/c1coc2ccc(Cl)cc2c1=O)c1ccncc1,0.6%,-0.6,-6%,-0.6%,-2.2,8%,17%
CCOc1ccc(OCCN2C(=O)c3ccccc3C2=O)cc1,0.7%,/,-19%,-1.0%,-0.1,16%,-1%
O=c1c(-c2ccc(O)cc2)coc2c([C@@H]3O[C@H](CO)[C@@H](O)[C@H](O)[C@H]3O)c(O)ccc12,5.0%,/,/,2.7%,-2.4,8%,/
CCOc1ccc(CN(CC)C(=O)Cc2c[nH]c3ccccc23)cc1OC,/,8.6,-11%,1.0%,11,-1%,16%
CCOc1ccccc1CN1CCCC(CNC(=O)Cc2ccc(OC)cc2)C1 (stereo not drawn),-4.0%,-2.1,11%,-0.8%,-4.9,11%,18%
COC(=O)[C@]1(CC(C)C)N[C@H](c2ccc(-c3ccc(OC)cc3)cc2)[C@@H]2C(=O)N(C)C(=O)[C@@H]21,4.3%,/,/,1.9%,-0.6,-6%,/
CCCCCCSc1cc(-c2nc3ccc(C)cn3c2NCCCC)ccc1OC,3.9%,/,/,?,2.4,-1%,/
CCOCCCNC(=O)c1cc2c(=O)n3cccc(C)c3nc2s1,3.7%,-0.2,22%,3.7%,-5.0,6%,7%
O=c1c2c([nH]n1-c1ccccc1)CCCC2,/,-10,-15%,5.1%,4.1,?,8%
Cc1ccccc1-c1nc(C#N)c(N2CCC(C)CC2)o1,3.5%,3.2,-1%,2.2%,-2.2,-9%,-8%
Cc1onc(-c2c(F)cccc2Cl)c1C(=O)Nc1cccc2nsnc12,-21%,1.9,-31%[inhibitor],-26%[38.3 µM],-1.9,12%,8%
CN(C)S(=O)(=O)c1ccc(NC(=O)Cn2c(-c3ccccc3)noc2=O)cc1,0.5%,2.5,-62%[inhibitor],/,2.5,-8%,-10%
c1csc(C2=NNC(=NC3CCCCC3)SC2)c1,/,-0.5,-2%[15.4 µM],2.6%,-3.4,-7%,-10%
CC(=O)C(C)n1c(CN(C)Cc2ccccc2)nc2c1c(=O)n(C)c(=O)n2C (stereo not drawn),/,4.1,0%,-0.4%,1.1,7%,8%
Cn1c(=O)c(C(=O)Nc2ccccn2)c(O)c2ccccc21,-4.7%,-3.5,18%,1.4%,-1.8,-4%,8%
CN(Cc1ccccc1)C(=O)c1ccc(NC(=O)C2CCCN(C(=O)OC(C)(C)C)C2)cc1 (stereo not drawn),-0.7%,/,/,1.0%,1.1,-19%,/
Cc1ccccc1NC(=O)Cc1nc(COC(=O)C(C)C)cs1,-4.5%,0.9,12%,-1.1%,-0.6,6%,1%
Cc1ccc(C)c(N=Cc2ccc(-c3ccc([N+](=O)[O-])cc3)o2)c1,/,-0.5,-2%[15.4 µM],-0.1%,-4.3,-7%,19%
CC(C)(C)c1ccc(S(=O)(=O)N2CCCC2C(=O)N2CCOCC2)cc1 (stereo not drawn),/,-0.2,-3%,3.8%,-2.1,9%,-2%
Cc1ccc(CN(C(=O)c2ccccc2C)C2CCS(=O)(=O)C2)o1 (stereo not drawn),-1.4%,-1.6,-12%,0.6%,-4.3,2%,17%
COCCNS(=O)(=O)c1ccc(-c2ccc(Cl)cc2)cc1,-1.3%,5.0,-2%[15.4 µM],-0.6%,0.0,-2%,4%
Cc1nc([N+](=O)[O-])c(Br)n1Cc1ccc(Cl)c(Cl)c1,0.3%,-5.3,2%,-2.2%,1.4,13%,-6%
Cc1cccc(-n2ncc3c(NCCCN4CCCC4=O)ncnc32)c1,28µM*,-2.2,-40%[inhibitor],2.3%,-1.9,-23%,4%
CC1CCCN(C(=O)CN2CCC(c3nc4ccc(Cl)cc4[nH]3)CC2)C1 (stereo not drawn),0.4%,-0.8,-8%,-1.0%,-4.0,-5%,-2%
CN1C(=O)/C(=C/c2ccco2)SC1=Nc1ccc(N2CCOCC2)cc1,-1.3%,9.5,3%,4.7%,-1.5,-1%,2%
CCc1ccc2c(CN3CCC(C(=O)OC)CC3)cc(=O)oc2c1,/,-9.7,16%[15.4 µM],-2.5%,66*,-16%,2%
CCN(CC)S(=O)(=O)c1ccc(C(=O)OCC(=O)NCc2ccco2)cc1,2.4%,1.8,-17%,1.7%,-5.1,-9%,10%
COc1cc(C(O)P(=O)(OC(C)C)c2ccc(N(C)C)cc2)cc(OC)c1OC (stereo not drawn),-1.6%,1.6,-2%,-4.1%,-1.6,-17%,10%
CCOc1ccc(NS(=O)(=O)c2ccc(C(=O)NCC(c3cccs3)N3CCOCC3)cc2)cc1 (stereo not drawn),1.1%,/,-31%[inhibitor],3.2%,-2.3,1%,/
COC(=O)c1c(NC(=O)CSc2n[nH]c(N)n2)sc(C)c1C,-7.8%,4.6,21%,3.5%,0.6,16%,-7%
Nc1nccc(/C=C/c2c(Cl)cccc2Cl)n1,/,2.4,7%[15.4 µM],-1.6%,-1.7,5%,-7%
O=c1c2ccccc2nnn1CSc1ccccc1F,0.7%,2.3,-40%[inhibitor],1.1%,-1.3,2%,-1%
Cc1ccc(CC2(O)CC(C)N(C)CC2C)c(C)c1 (stereo not drawn),-0.7%,2.9,-13%,-1.1%,-0.9,16%,33%[activator]
O=C(/C(=C/O)N=Nc1ccccc1)c1cccs1,/,2.7,5%[15.4 µM],14%,5.6,-26%,-7%
CC(=O)Nc1ccc(C(=O)NCC(=O)OCc2c(F)cccc2Cl)cc1,/,3.1,15%[15.4 µM],0.4%,-2.8,11%,14%
COc1ccc(N=C2C(=O)Nc3ccc(C)c(Br)c32)cc1,-0.9%,-2.2,-25%,2.5%,-26,3%,23%
O=[N+]([O-])c1ccc2c(c1)C(O)n1nc(-c3ccccc3)nc1S2 (stereo not drawn),/,1.2,-22%[15.4 µM],1.4%,-4.8,5%,6%
C=CCSc1nc2sc3c(c2c(=O)n1CC)CCC3,0.3%,-3.0,-15%,7.6%,-1.2,-14%,-3%
CCOc1ccc(OCC)c(S(=O)(=O)n2ccnc2C)c1,/,-7.0,-35%[inhibitor],0.1%,-1.3,-2%,12%
Cc1onc(-c2c(F)cccc2Cl)c1C(=O)OCc1nnc(-c2ccccc2)o1,-1.7%,/,-16%,2.7%,3.9,-4%,/
Cc1ccc(-n2nc3c(N4CCC(C(=O)NCCc5cccs5)CC4)nnc(C)c3c2C)cc1,-1.8%,/,?,1.7%,-5.3,-10%,1%
COc1ccc(S(=O)(=O)Cc2ccc(C(=O)N3CCN(C4CCCCC4)CC3)o2)cc1,0.6%,0.6,-62%[inhibitor],0.5%,-4.4,3%,7%
COc1ccc(S(=O)(=O)N2CCN(c3ccccc3)CC2)cc1OC,/,/,-34%[15.4 µM],2.6%,2.0,13%,/
CCN1CCN(C(c2cccs2)C(C)NC(=S)NC2CCCCC2)CC1 (stereo not drawn),/,-1.4,5%[15.4 µM],0.7%,-2.8,9%,14%
COc1ccc(Cl)cc1S(=O)(=O)N1CCCC(C(=O)NCC(N)=O)C1 (stereo not drawn),-1.2%,/,2%,-1.3%,-3.1,7%,/
CCSC1=NC(C)(C)C=C(C)N1,-2.2%,-4.5,3%,5.6%,-2.7,8%,6%
CCN(C(=O)COC(=O)c1cc(=O)[nH]c2ccccc12)c1c(N)n(Cc2ccccc2)c(=O)[nH]c1=O,-14%,/,-3%,1.4%,-3.8,11%,/
COc1cc(/C=N/NC(=O)c2cccc(N3CCCC3=O)c2)ccc1O,/,/,-10%[15.4 µM],1.9%,-1.2,-5%,5%
CCOP(=O)(c1ccc(N(C)C)cc1)C(O)c1c(Cl)cccc1Cl (stereo not drawn),-0.8%,3.2,15%,-0.9%,-2.8,2%,-3%
COc1ccccc1C(=O)COC(=O)Cc1n[nH]c(=O)c2ccccc12,4.8%,/,-24%,-2.5%,-4.6,16%,/
COc1cc(NC(=O)c2ccco2)c(OC)cc1NC(=O)c1cc(OC)c(OC)c(OC)c1,-5.9%,3.3,-35%,4.6%,3.6,6%,4%
O=C(COC(=O)c1ccccc1O)NC(=O)NCc1ccccc1,12%,/,26%,25%,-4.7,3%,/
